KCNQ2 enhance – potentiators of rat KCNQ2 potassium channel; B-score at 10 µM; 310,000 tested, 0.54% active; CHO-K1 KCNQ2, FluxOR thallium flux fluorescence; hits give high values;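 active = fluorescence ratio B-score at least 3 SD of library B-scores, with initial fluorescence B-score within 3 SD, cut at about 5.3 in these data; same plate scores as AID 2156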;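 also: B-score of peak minus minimum over baseline fluorescence ratio after K+ and Tl+ stimulus; positive B-score means potentiation of KCNQ2 with more thallium influx and brighter signal; only the inactives scoring about 0 or higher are listed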
Target sequence (O88943 whole entry, looked up): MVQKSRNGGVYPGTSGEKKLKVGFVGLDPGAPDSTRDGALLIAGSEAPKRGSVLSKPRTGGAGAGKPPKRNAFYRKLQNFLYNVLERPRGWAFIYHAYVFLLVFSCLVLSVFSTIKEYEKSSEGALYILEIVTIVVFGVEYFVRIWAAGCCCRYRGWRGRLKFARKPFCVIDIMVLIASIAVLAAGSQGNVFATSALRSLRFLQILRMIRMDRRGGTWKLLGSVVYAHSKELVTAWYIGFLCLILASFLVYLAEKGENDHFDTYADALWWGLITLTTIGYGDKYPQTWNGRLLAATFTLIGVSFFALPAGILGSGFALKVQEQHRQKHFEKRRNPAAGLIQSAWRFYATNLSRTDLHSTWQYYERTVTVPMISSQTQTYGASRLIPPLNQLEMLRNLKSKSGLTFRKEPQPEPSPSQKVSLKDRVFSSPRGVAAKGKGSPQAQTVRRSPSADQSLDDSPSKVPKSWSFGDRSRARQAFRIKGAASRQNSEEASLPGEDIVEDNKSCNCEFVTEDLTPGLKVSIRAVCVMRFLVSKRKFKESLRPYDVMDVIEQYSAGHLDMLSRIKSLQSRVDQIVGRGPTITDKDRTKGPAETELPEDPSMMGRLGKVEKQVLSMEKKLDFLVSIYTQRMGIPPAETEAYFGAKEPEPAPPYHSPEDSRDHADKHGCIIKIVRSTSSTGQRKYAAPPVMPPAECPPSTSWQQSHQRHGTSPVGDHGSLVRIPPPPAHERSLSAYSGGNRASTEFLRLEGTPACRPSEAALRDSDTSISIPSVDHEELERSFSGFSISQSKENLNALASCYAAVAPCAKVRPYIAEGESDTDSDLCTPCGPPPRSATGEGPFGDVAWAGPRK
KCNQ2 enhance baseline – also measured in KCNQ2 enhance; calls as there; B-score; compound at 10 µM; measured here: initial fluorescence intensity artifact check;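 brightness before thallium and not channel activity; 0 = typical well and far values either way flag optical interference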
* = called active by the depositor. These rows are one share of the data, so the mix of outcomes need not match the whole.

KCNQ2 enhance baseline | KCNQ2 enhance | SMILES
0.42 | 0.73 | O=C(c1ccc(F)cc1)C1CCN(C(=S)NCC2CCCO2)CC1 (centres undefined)
0.4 | 0.52 | FC(F)(F)c1nnc2sc(-c3ccncc3)nn12
-0.61 | 0.98 | COc1ccc(N(C(C)C(=O)Nc2ccc(S(=O)(=O)N3CCOCC3)cc2)S(C)(=O)=O)cc1 (centres undefined)
0.02 | 0.07 | CC(=O)Nc1ccc(S(=O)(=O)Nc2cccc(C(=O)NC(C)(C)C)c2)cc1
-2 | 1 | CC1=C(C(=O)NC2CCCc3c2cnn3-c2cccc(C)c2C)OCCO1 (centres undefined)
0.7 | 0.66 | COc1cc2nc(SCC(=O)NCc3ccco3)n(Cc3ccc(Cl)cc3)c(=O)c2cc1OC
0.51 | 0.01 | Cc1cc2c(=O)n(C)c(SCC(=O)Nc3ccccc3)nc2s1
-0.46 | 0.24 | Cc1nc2cc(-c3ccccc3)[nH]n2c(=O)c1C
-0.97 | 0.19 | COc1ccccc1NC(=O)c1cc2ccccc2nc1C
-0.56 | 0.62 | COCCn1c(SCC(=O)Nc2ccc(F)cc2F)nc2c([nH]c3ccccc32)c1=O
0.09 | 2 | O=C(O)c1cc2nc(C3CC3)cc(C(F)(F)F)n2n1
-0.05 | 0.12 | CNS(=O)(=O)c1cccc(C(=O)OCc2cc(=O)n3cc(Br)ccc3n2)c1
-0.06 | 0.07 | COc1ccc(OCc2cc(=O)[nH]c3ccccc23)cc1
0.07 | 0.02 | O=C(O)c1ccccc1NS(=O)(=O)c1ccc2c3c(cccc13)C(=O)N2
1 | 0.52 | COc1cc(OC)c(C(=O)O/N=C(\N)c2ccccc2)cc1OC
-1.9 | 0.01 | Cc1cc(=O)oc2c3c(cc(OCC(=O)NCC4CCC(C(=O)O)CC4)c12)OC(C)(C)CC3 (centres undefined)
0.37 | 0.54 | CCc1ccccc1NC(=O)C1CCCN(S(=O)(=O)c2c(C)noc2C)C1 (centres undefined)
-2.3 | 0.45 | CC1CN(S(=O)(=O)c2cccc(C(=O)NCCC3=CCCCC3)c2)CC(C)O1 (centres undefined)
-0.97 | 0.13 | CCCCCC(=O)N/N=C(\C)c1ccc(NC(=O)c2ccco2)cc1
0.03 | 1.3 | CC(C)OCCCNC(=O)C1CCC(=O)N1C(C)C (centres undefined)

Looked up one by one from the list above, 4 records:
KCNQ2 enhance baseline | KCNQ2 enhance | SMILES
-2.3 | 0.45 | CC1CN(S(=O)(=O)c2cccc(C(=O)NCCC3=CCCCC3)c2)CC(C)O1 (centres undefined)
0.07 | 0.02 | O=C(O)c1ccccc1NS(=O)(=O)c1ccc2c3c(cccc13)C(=O)N2
0.09 | 2 | O=C(O)c1cc2nc(C3CC3)cc(C(F)(F)F)n2n1
0.37 | 0.54 | CCc1ccccc1NC(=O)C1CCCN(S(=O)(=O)c2c(C)noc2C)C1 (centres undefined)

Later entries.
KCNQ2 enhance baseline | KCNQ2 enhance | SMILES
-2.4 | 0.87 | CCCCOC(=O)c1ccc(NC(=O)C(=O)NCCN(CC)CC)cc1
-1.8 | 0.21 | S=C(NC1CC1)N1CCN(c2ccc(Cl)cc2)CC1
-0.64 | 0.11 | Cc1noc(C)c1S(=O)(=O)N1Cc2ccccc2CC1C(=O)N(C)C (centres undefined)
-0.2 | 0.99 | Cn1cc(Br)c(C(=O)NNC(=O)c2cccc(Br)c2)n1
0.01 | 1.8 | O=C(Nc1ccccc1)N1CCN(c2ccc(C(F)(F)F)cn2)CC1
-0.07 | 0.41 | O=C(COC(=O)CC1c2ccccc2CCN1S(=O)(=O)c1ccccc1)Nc1ccccc1 (centres undefined)
0.27 | 1.1 | COCCn1c(C)cc(C(=O)COC(=O)/C=C/c2c(C)nn(C3CCS(=O)(=O)C3)c2Cl)c1C (centres undefined)
4.2 | 0.8 | Cc1cc(NCc2cccnc2)nc(N)n1
1.7 | 0.48 | Cc1cccc(Cl)c1NC(=S)NN
-0.55 | 1.4 | COc1ccc(Cc2nnc(SCC(=O)N(C)c3ccccc3)o2)cc1

Part of the list above in order of formula weight, ascending:
KCNQ2 enhance baseline | KCNQ2 enhance | SMILES
4.2 | 0.8 | Cc1cc(NCc2cccnc2)nc(N)n1
-2.4 | 0.87 | CCCCOC(=O)c1ccc(NC(=O)C(=O)NCCN(CC)CC)cc1
-0.2 | 0.99 | Cn1cc(Br)c(C(=O)NNC(=O)c2cccc(Br)c2)n1
0.27 | 1.1 | COCCn1c(C)cc(C(=O)COC(=O)/C=C/c2c(C)nn(C3CCS(=O)(=O)C3)c2Cl)c1C (centres undefined)

Following part
KCNQ2 enhance baseline | KCNQ2 enhance | SMILES
1.3 | 0.92 | CCn1nc(C)c(CNC(=O)CC2C(=O)NCCN2CC(C)C)c1C (centres undefined)
-0.35 | 0.43 | COc1cccc(NC(=O)C2CCCN(S(=O)(=O)c3ccc(-n4cnnn4)cc3)C2)c1 (centres undefined)
-1.6 | 1.1 | O=C(COc1ncnc2ccccc12)NC(=O)NCc1ccccc1
-0.05 | 0.09 | COc1ccc(C2c3sc(=O)[nH]c3SC3C4CCC(C4)C23)cc1OC (centres undefined)
-0.25 | 0.37 | COc1ccc(-n2c(SC)nc3sc4c(c3c2=O)CCN(C)C4)cc1
-2 | 0.63 | CC1(C)NC(=O)N(CC(O)COC2CCCCC2)C1=O (centres undefined)
-0.38 | 2.6 | CC(=O)N/C(=C/c1ccc2c(c1)OCO2)C(=O)NCCO
0.83 | 0.19 | COc1ccnc(CS(=O)c2nc3cc(C(O)(F)F)ccc3[nH]2)c1OC (centres undefined)
-0.14 | 0.55 | CCOc1cccc2sc(N(CCCN(C)C)C(=O)c3ccc(S(=O)(=O)N(C)Cc4ccccc4)cc3)nc12
0.98 | 0.19 | Cc1c(Cl)cc(-n2cnnn2)cc1[N+](=O)[O-]
0.02 | 1.7 | CC(=O)/C(N=Nc1ccc2c(c1)OCO2)=C(\C)O
1.1 | 0.53 | Fc1ccccc1OCCSc1ncnc2nc[nH]c12
0.13 | 1.3 | Cc1sc2ncn(CC(=O)N(CC(=O)NC3CCCC3)Cc3cccs3)c(=O)c2c1C
0.48 | 1.2 | O=C1CCCN1c1ccc(S(=O)(=O)N2CCCCC2)cc1
-0.96 | 1.8 | Cc1ccc(S(=O)(=O)/N=C(\CSC(N)=O)Nc2ccccc2)cc1
0.85 | 0.85 | Cc1ccc(C)c(NC(=S)N2CCN(c3cccc(C(F)(F)F)c3)CC2)c1
-1.8 | 2.1 | COc1ccc(-n2cc(CNC3CCN(C)CC3)c(-c3cccc(F)c3)n2)cc1
-1.8 | 0.07 | CC(=O)N(C)c1ccc(NC(=S)Nc2cccc3ccccc23)cc1
-1.5 | 0.5 | Cc1ccc2c(C(=O)CN3CCN(C4CCCCC4)CC3)c(C)[nH]c2c1
-0.01 | 1.7 | COC(=O)C(CC(C)C)NC(=O)c1cc(OC)c(OC)c(OC)c1 (centres undefined)
0.04 | 0.92 | Cc1ccc(C(C(=O)NC(C)(C)C)N(CC2CCCO2)C(=O)CCC(=O)Nc2ccccn2)cc1 (centres undefined)
0.36 | 0.04 | CCOC(=O)N1CCN(C(=O)c2cc3sccc3n2C)CC1
-1.3 | 0.36 | CCCC(=O)Nc1ccc(-c2nc3ncccc3o2)cc1
0.2 | 0.8 | COc1ccc(Cc2nnc(NC(=O)CSc3ccccc3)s2)cc1
1.5 | 0.28 | O=C(OCc1ccc(Br)cc1)c1cccnc1Cl
-0.98 | 1.5 | CC1CCN(C(=O)COC(=O)c2n[nH]c3ccccc23)CC1
-0.1 | 1.8 | Cc1cn(-c2cc(NC(=O)c3ccc(C)c(NC(=O)c4cccc(-c5cn[nH]c(=O)c5)c4)c3)cc(C(F)(F)F)c2)cn1
-0.05 | 0.44 | Cc1ccc(N2CC(C(=O)Nc3nnc(SCCC4OCCO4)s3)CC2=O)cc1C (centres undefined)
0.95 | 2.2 | COc1ccc(OC)c(NC(=O)CNC(=O)Cn2cnc3ccccc3c2=O)c1
0.09 | 1.1 | COc1ccc(CCNC(=O)CCS(=O)(=O)c2ccc3c(c2)NC(=O)CO3)cc1OC
-1.3 | 0.21 | CCCC(=O)Nc1nc2ccc3nc(C)sc3c2s1
-0.59 | 0.98 | Cc1cc(Cl)ccc1Oc1nccc(N(C)C)c1C#N
1.7 | 0.06 | COC(=O)CCCC1=CC2=CC(=O)C(C)(OC(=O)CCc3ccccc3)C(=O)C2=CO1 (centres undefined)
0.27 | 0.71 | Cc1ccc(NC(=O)CN(C)C(=O)CNC(=O)c2sc3ccccc3c2Cl)cc1
0.86 | 0.4 | O=[S@]1Oc2ccccc2-c2ccccc21
-0.56 | 3.3 | COc1cc(C(=O)Nc2cccc3c2CCCC3)cc(OC)c1OC
-0.68 | 0.04 | CCOC(=O)c1c[nH]c(=O)c(Br)c1O
0.06 | 0.22 | Cc1cnn(-c2cc(N/N=C/c3cccc(F)c3)ncn2)c1
-0.64 | 0.21 | COc1ccc(N2C(=O)CC(Sc3ncccc3C(=O)O)C2=O)cc1 (centres undefined)
0.15 | 1.1 | CS/C(N)=N/S(=O)(=O)c1ccc(NC(C)=O)cc1
-0.11 | 0.51 | Cc1c(NC(=O)CSc2nnnn2-c2ccc(O)cc2)c(=O)n(-c2ccccc2)n1C
-0.39 | 0.8 | O=C(COC(=O)c1ccccc1-n1cnnn1)c1ccc(F)c(F)c1
-0.05 | 1.4 | CCC(C)(C)NC(=O)C(c1cccc(OC)c1OC)N(C(=O)CCC(=O)Nc1cc(C)on1)c1ccc2c(c1)OCCO2 (centres undefined)
0.8 | 0.78 | COc1ccc(/C(O)=C2/C(=O)C(=O)N(CC3CCCO3)C2c2ccc(OC)c(OC)c2)cc1 (centres undefined)
-0.46 | 0.92 | Cc1cc(NC(=O)C(=O)NCCN2CCN(S(C)(=O)=O)CC2)ccc1Br
-1.1 | 0.59 | COCCNC(=O)C(=O)Nc1cc2c3c(c1)C(C)C(=O)N3CCC2 (centres undefined)
-1.1 | 0.83 | COCCCNC(=O)Cn1c(=O)n(CC(=O)NCCc2ccc(OC)c(OC)c2)c(=O)c2sccc21
-1 | 0.41 | NS(=O)(=O)c1ccc(CNC(=O)c2cc(-c3cccnc3)nc3ccccc23)cc1
-1.2 | 0.98 | CCOC(=O)c1nn(-c2ccc(C)c(C)c2)cc1O
0 | 0.12 | CCOCCc1nnc(NC(=O)CCC2CCCCC2)s1

(further entries)
KCNQ2 enhance baseline | KCNQ2 enhance | SMILES
0.01 | 1.3 | CCc1ccc(Nc2nnc(SCC(=O)Nc3cccc(S(=O)(=O)NC4=NCCCCC4)c3)s2)cc1
-1.6 | 2.6 | Cc1ccsc1CNn1cnnc1SCc1ccc(Cl)cc1
1 | 3.4 | Cc1ccc(C(=O)Nc2ccccc2C(=O)O)cc1S(=O)(=O)Nc1ccccc1
-0.16 | 0.46 | COc1ccc([N+](=O)[O-])cc1NC(=O)c1ccccc1N(C)S(C)(=O)=O
-0.11 | 1.7 | O=C(CN1C(=O)CCC1=O)Nc1ccc2c3c(cccc13)CC2
0.16 | 1 | Cc1ccc(OC(=O)CCC(=O)Nc2ccc(S(=O)(=O)Nc3cc(C)on3)cc2)cc1
-0.57 | 0.11 | CCc1nc(SCC(=O)NNC(=O)c2ccc(OC)cc2)c2ccccc2n1
-0.19 | 0.57 | C/C(=N\NC(=O)c1c(Cl)cnn1C)c1cccc(NC(=O)COc2ccccc2)c1
-0.02 | 1.2 | CC(=O)NCCc1ccc(O)cc1
0.86 | 0.03 | O=[N+]([O-])c1ccc(Oc2cccnc2)nc1
0.88 | 0.46 | O=C(COc1cc2oc(=O)c3c(c2cc1Cl)CCC3)Nc1ccccn1
0.09 | 0.04 | COc1ccc(N2CCN(C(=O)CSc3nnc(-c4ccco4)n3C)CC2)cc1
-1.7 | 3.1 | CCCCn1c(NC(=O)c2ccccc2)nc2ccccc21
0.16 | 0.04 | Cc1cc(C)c(C)c(S(=O)(=O)NC(C(=O)O)C(C)C)c1C (centres undefined)
-1 | 1.6 | Cc1ccc(-c2noc(CNC(=O)c3ccc4c(c3)OCO4)n2)cc1
0.03 | 1.7 | CCC(C)n1c(SCC(=O)NCc2ccco2)nnc1-c1cccc(S(=O)(=O)N2CCOCC2)c1 (centres undefined)
1.1 | 0.01 | CCS(=O)(=O)c1ccc2oc(SCC(=O)Nc3ccc(OC)c(OC)c3)nc2c1
-1.5 | 1.4 | O=C(NCc1ccco1)C1CC(c2cc(C(F)(F)F)cc(C(F)(F)F)c2)=NO1 (centres undefined)
-0.27 | 0.06 | CCOC(=O)c1cnc(SCC(=O)OC)nc1N
-1.1 | 0.77 | COc1ccccc1CC(=O)N1CCN(c2ccccc2F)CC1
-0.15 | 0.22 | CCC(=O)N1CCN(c2cc(N3CCN(C)CC3)c(F)cc2[N+](=O)[O-])CC1
0.03 | 0.56 | Cc1ccc(C2/C(=C(\O)c3ccc4c(c3)OCCO4)C(=O)C(=O)N2Cc2cccnc2)cc1 (centres undefined)
0.15 | 0.58 | COCCn1c(C)cc(C(=O)Cn2nc(C(=O)O)c3ccccc3c2=O)c1C
-0.39 | 0.12 | Cc1cccc(-n2c(Cn3nc(C)c([N+](=O)[O-])c3C)n[nH]c2=S)c1
-1.4 | 1.3 | COc1ccc(NC(=O)c2ccc(N3C(=O)C4CC=C(Cl)CC4C3=O)cc2)cc1 (centres undefined)
1.5 | 0.07 | CCOc1ccccc1NC(=O)N1CCCC1C(=O)Nc1ccc(-n2cnnn2)c(C)c1 (centres undefined)
0.15 | 0.32 | COc1ccc(NC(=O)C(c2ccccc2)N(C)C(=O)c2ccc(=O)[nH]c2)cc1 (centres undefined)
-1.9 | 1 | Cc1cc(C)n(S(=O)(=O)c2ccc(C)c(C)c2C)n1
-3.9 | 1.5 | COCCN(C(=O)COC(=O)c1ccccc1Cc1ccccc1)c1c(N)n(Cc2ccccc2)c(=O)[nH]c1=O
1.9 | 0.06 | CNC(=S)N(CCc1c(C)[nH]c2ccc(F)cc12)Cc1cccnc1
0.65 | 0.42 | CC(=O)C1=C(O)C(=O)N(CCN(C)C)C1c1ccc(Cl)cc1 (centres undefined)
-0.73 | 2.2 | O=C(c1cccc(N2C(=O)C3C4C=CC(C4)C3C2=O)c1)N1CCN(c2ccccc2F)CC1 (centres undefined)
-1.2 | 0.26 | Cc1nc2ccccc2c2oc(C(=O)Nc3ccc4c(c3)OCCO4)cc12
